Mtb bLac sens – beta-lactam sensitization of Mtb H37Rv, H37Rv; M. tuberculosis H37Rv growth with meropenem, percent inhibition; hits of this screen are not shown here; inhibition, % at 25 µM; 0.27% of 330,000 active; AID 434955, 2010;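 active = about 74% or more and at least 40 points above the plate without the antibiotic, then above 30% in a dose series; inconclusive = first-round hits that could not be retested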;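 also: growth measured after seven days incubation then overnight dye step; 0% = bacteria only wells and 100% = bacteria with antibiotic; twin plates without the antibiotic show which effects depend on it; some results filed as inactive read as strong as hits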
YopH inh – YopH tyrosine phosphatase inhibitors, primary screen, biochemical, fluorescence Ex485/Em525; YopH tyrosine phosphatase [Yersinia enterocolitica]; inhibition, %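 (about 10 µM by stock and volumes)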; 0.16% of 140,000 active; AID 898, 2007;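 active = inhibition of 50% or more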;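 also: controls were vehicle for no effect and minimum signal wells for full effect; inactives centre near -20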
Mtb growth – M. tuberculosis H37Rv growth inhibitors, H37Rv strain (AID 1626) | M. tuberculosis H37Rv growth inhibition; higher % means a stronger effect | 0.95% of 220,000 active | inhibition, % at 10 µM, or IC50 in µM where a hit was titrated;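 active = confirmed in a dose series; inconclusive = inhibition above 80% but not taken into the dose series; inactive = below 80% or under 30% at every dose of the series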;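 also: bacteria incubated seven days before Alamar blue readout; 0% = bacteria only wells and 100% = bacteria with antibiotic wells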
Arbovirus anti – antivirals against arbovirus infection, primary screen, cell-based, full library, 10K replicate subset; arbovirus infection cell-based antiviral screen; inhibition, % at 10 µM; 0.37% of 200,000 active; AID 1251, 2008;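 active = inhibition from about 30%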;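 also: bluetongue infection of BSR cells; cell survival read as ATP light after 72 h; 0% = infected wells without compound and 100% = uninfected wells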
RecA intein inh – Mtb RecA intein splicing inhibitors, primary screen, biochemical, fluorescence, HTS; Protein RecA (Mycobacterium tuberculosis (strain ATCC 25618 / H37Rv)), P9WHJ3; cell-free RecA intein splicing; inhibition, %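 (about 9 µM by stock and volumes)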; 0.75% of 290,000 active; AID 2221, 2009; in the data active = inhibition above about 30%; inconclusive = no clear call, values can overlap the other calls;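 also: 0% = vehicle wells and 100% = reference inhibitor control wells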
Target sequence (P9WHJ3 whole entry, looked up): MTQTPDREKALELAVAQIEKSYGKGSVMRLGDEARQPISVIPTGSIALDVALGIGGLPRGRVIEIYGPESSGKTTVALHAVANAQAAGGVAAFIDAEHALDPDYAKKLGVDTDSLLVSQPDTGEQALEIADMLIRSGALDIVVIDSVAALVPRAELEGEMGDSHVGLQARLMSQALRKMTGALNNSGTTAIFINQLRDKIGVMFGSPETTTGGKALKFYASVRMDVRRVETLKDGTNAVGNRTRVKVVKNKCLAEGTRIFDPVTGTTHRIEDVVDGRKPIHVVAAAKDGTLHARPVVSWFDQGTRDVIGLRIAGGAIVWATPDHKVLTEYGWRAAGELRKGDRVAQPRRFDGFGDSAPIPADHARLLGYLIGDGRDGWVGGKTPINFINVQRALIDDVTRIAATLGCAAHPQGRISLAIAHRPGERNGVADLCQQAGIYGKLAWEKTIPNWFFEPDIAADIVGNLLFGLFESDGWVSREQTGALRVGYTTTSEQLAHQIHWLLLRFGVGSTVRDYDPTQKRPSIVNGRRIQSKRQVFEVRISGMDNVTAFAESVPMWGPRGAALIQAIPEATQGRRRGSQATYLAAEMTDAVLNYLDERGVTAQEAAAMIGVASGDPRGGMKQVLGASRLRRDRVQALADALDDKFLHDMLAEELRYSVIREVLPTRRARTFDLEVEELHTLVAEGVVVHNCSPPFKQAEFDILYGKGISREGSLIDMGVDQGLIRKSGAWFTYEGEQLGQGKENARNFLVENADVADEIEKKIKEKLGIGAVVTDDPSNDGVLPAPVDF
Arbovirus anti repeat – further read-out of Arbovirus anti, marked with its call; inhibition, %; measured here: 10K subset replicate screen; many hits read low in the repeat;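 first of two repeat runs on a subset; 0% = infected and 100% = uninfected wells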
Active calls of the source: *; ? = inconclusive; nt = not tested or not shown.

SMILES	Mtb bLac sens	YopH inh	Mtb growth	Arbovirus anti	RecA intein inh	others
CCOC(=O)C(NC(C)=O)C(OC(C)=O)c1cccc(N(CCO)CCO)c1 (configuration not stated)	1	-35	-8%	0	-0.3
CCC(Oc1ccccc1)C(=O)Nc1nnc(C)s1 (configuration not stated)	-2	37	5%	4	-1.7
O=C1CC(Nc2ccc3ccccc3c2)C(=O)N1Cc1ccccc1 (configuration not stated)	94	-4	9%	6	-0.7
CC(C)(C)c1cc(=O)n2c(C#N)c(C#N)nc2[nH]1	-4	-51	-7%	6	-3.7
CC(C)c1ccc(NC(=O)COc2ccc(S(=O)(=O)N3CCOCC3)cc2)cc1	-4	-13	-3%	7	-1.1
CCCn1c(=O)[nH]c(=O)c2c1nc(-c1ccc(OC)c(Br)c1)n2CCOC	-6	nt	-3%	3	-0.2
Cc1ccc(C(=O)NC2CC3CCCC(C2)N3C(=S)NCc2ccco2)cc1 (configuration not stated)	13	nt	0%	7	nt
CCOC(=O)N1CCN(C(=O)c2ccc(Cn3c(=S)[nH]c4cc(OCC)c(OCC)cc4c3=O)cc2)CC1	9	nt	1%	3	1.6
CCCOc1ccc(CC2CCC(=O)NC2=O)cc1 (configuration not stated)	-3	-21	6%	0	2.2
COc1ccc(C(=O)c2sc3nc(-c4ccccc4)ccc3c2N)cc1	45	-17	4%	3	-14
COc1ccc(CN(Cc2ccc(C(=O)O)cc2)C(=S)Nc2ccccc2Cl)cc1OC	3	nt	1%	2	-1.0
COCC(=O)N(C)c1nnc(-c2cnc(C)cn2)s1	27	-45	0%	3	1.5
COc1ccc(Cl)cc1NC(=O)C1CC(c2ccccc2O)=NO1 (configuration not stated)	1	nt	nt	nt	0.0
Cc1cccc(C(=O)NC(=S)NNC(=O)c2ccc(Cl)cc2)c1	98	-26	?	-27	1.3
CCOC(=O)c1cc(-c2c(Cl)cccc2Cl)no1	1	nt	4%	nt	2.0
COc1ccccc1NS(=O)(=O)c1cc(NC(=O)c2cccs2)ccc1N1CCOCC1	-3	nt	2%	nt	-2.9
CCc1nn(CC(=O)NCCc2ccc(OC)cc2OC)c(=O)c2cc3occc3n12	1	nt	nt	nt	11
C/C(=N\Nc1ccc([N+](=O)[O-])cc1[N+](=O)[O-])C(C)(C)C(C(=O)O)C(=O)O	?	-18	nt	1	-1.9
Cc1cc(C)c2nc(/N=C(\N)NC(=O)Nc3ccccc3)nc(C)c2c1	97	-28	4µM*	-17	-1.2
COc1ccc(CCNC(=O)Cn2nnc(C(=O)Nc3cccc(C)c3C)c2N)cc1OC	-3	nt	nt	nt	-0.6
CC(=O)Nc1ccc(S(=O)(=O)Nc2nc3ccccc3nc2Nc2ccccc2)cc1	-4	-6	0%	-3	7.8
CC1CCCCC1NC(=O)C1CCN(S(=O)(=O)c2ccc3c(c2)CCC(=O)N3)CC1 (configuration not stated)	3	2	-8%	-1	-0.6
COc1cc(NC(=S)N(C)CCC#N)c(OC)cc1Cl	5	nt	nt	nt	0.6
O/N=C/c1ccc2cccc(O)c2n1	77	nt	4%	nt	1.7
COc1cc(Br)cc(CN2CCN(C=O)CC2)c1O	-3	-40	3%	6	-1.9

The closing three compounds of the part above are carried over, then new ones follow.
SMILES	Mtb bLac sens	YopH inh	Mtb growth	Arbovirus anti	RecA intein inh	others
COc1cc(NC(=S)N(C)CCC#N)c(OC)cc1Cl	5	nt	nt	nt	0.6
O/N=C/c1ccc2cccc(O)c2n1	77	nt	4%	nt	1.7
COc1cc(Br)cc(CN2CCN(C=O)CC2)c1O	-3	-40	3%	6	-1.9
O=C(NCN1CCCCC1)c1cnccn1	4	0	-6%	2	2.9
COC(=O)c1cc(-c2cccc(OC)c2)c2c(=O)[nH]c(=O)n(C)c2n1	4	nt	nt	nt	-3.7
CCCOc1ccc(C(=O)ON=C2CCN(C)CC2)cc1	54	nt	1%	3	nt
COc1ccc(OC)c(-c2cc(C(=O)NC3CCCC3)c3ccccc3n2)c1	-14	nt	nt	nt	0.9
O=C1Cc2ccccc2C(=O)N1c1ccc(F)cc1Cl	-5	nt	nt	nt	-1.5
Cc1ccc2c(c1)C(=O)C(=O)N2CC(=O)Nc1ccc(N2CCOCC2)cc1	-2	nt	3%	-8	-6.5
CCCc1nc2c([nH]1)C(c1cccnc1)C(C#N)=C(N)O2 (configuration not stated)	-2	-26	-3%	-5	-1.7
COc1ccc(CNC(=O)CN(Cc2ccco2)C(=O)CNS(=O)(=O)c2ccc(C)cc2)cc1	3	nt	nt	nt	0.1
CCCCCOc1ccc(NC(=O)C2OC3OC(C)(C)OC3C3OC(C)(C)OC23)cc1 (configuration not stated)	4	-11	5%	-4	-0.8
CC(=O)Nc1ccc(C(=O)CSc2nnc3scc(-c4ccccc4)n23)cc1	-1	-44	-14%	-7	2.3
CC(C)(C)OC(=O)N1CCC2(CC1)Oc1ccc(F)cc1C(=O)C21CC(c2ccccc2)=NO1 (configuration not stated)	68	nt	18%	nt	2.4
Cc1ccc2nc(N3CCN(C)CC3)c(C#N)cc2c1	6	-38	0%	1	-5.4
O=C(CN1C(=O)CCC1=O)Nc1nc(-c2ccccn2)cs1	7	-43	3%	3	0.6	Arbovirus anti repeat=4
COCCNC(=O)CSc1nc2ccc(N3CCOCC3)cc2c(=O)n1Cc1ccc(OC)cc1	-9	11	-11%	0	-5.7
Cc1ccc(S(=O)(=O)NC(=O)Nc2ccc(C)cc2C)cc1	-5	nt	nt	nt	1.0
Nc1nc(-c2ccccc2)cc(-c2ccccc2)n1	2	nt	nt	nt	6.9
CCC(C)N1CCC(Oc2ccc(C(=O)NCc3ccccn3)cc2)CC1 (configuration not stated)	?	nt	nt	nt	-5.4
O=C(CCn1c(=O)[nH]c2ccccc2c1=O)NCCSCc1ccccc1	-7	nt	-6%	0	0.5
Cc1cccc(CNC(=O)C2CCC(=O)N(C3CC3)C2)c1 (configuration not stated)	-4	nt	nt	nt	-1.0
Oc1ccccc1N1CCN(c2ncnc3scc(-c4ccc(F)cc4)c23)CC1	6	nt	nt	nt	17
S=C1NC[C@H](CC2CCCCC2)N1CC1CCCCC1	1	nt	2%	-15	9.8
CC1CCN(c2c(NCC3CCC(C(=O)NC4CCCCCC4)CC3)c(=O)c2=O)CC1 (configuration not stated)	-2	nt	-6%	nt	-0.2
O=C(C/C(=N/O)c1ccccc1O)C(F)F	-2	-7	-5%	14	1.4
Cc1cccc(C(=O)O/N=C(\N)c2ccc(Cl)cc2)c1	3	nt	nt	nt	1.2
COc1cc2c(cc1OC)-c1cc(NC3CC3)nc(=O)n1CC2	12	0	-4%	-6	-3.6

Part of the list above in order of molar mass, ascending.
SMILES	Mtb bLac sens	YopH inh	Mtb growth	Arbovirus anti	RecA intein inh	others
O=C(NCN1CCCCC1)c1cnccn1	4	0	-6%	2	2.9
Cc1cccc(CNC(=O)C2CCC(=O)N(C3CC3)C2)c1 (configuration not stated)	-4	nt	nt	nt	-1.0
Cc1cccc(C(=O)O/N=C(\N)c2ccc(Cl)cc2)c1	3	nt	nt	nt	1.2
Cc1ccc(S(=O)(=O)NC(=O)Nc2ccc(C)cc2C)cc1	-5	nt	nt	nt	1.0

Random excerpt: 5 records from the list.
SMILES	Mtb bLac sens	YopH inh	Mtb growth	Arbovirus anti	RecA intein inh	others
O=C(C/C(=N/O)c1ccccc1O)C(F)F	-2	-7	-5%	14	1.4
CC(C)(C)OC(=O)N1CCC2(CC1)Oc1ccc(F)cc1C(=O)C21CC(c2ccccc2)=NO1 (configuration not stated)	68	nt	18%	nt	2.4
CCCc1nc2c([nH]1)C(c1cccnc1)C(C#N)=C(N)O2 (configuration not stated)	-2	-26	-3%	-5	-1.7
COc1ccc(CNC(=O)CN(Cc2ccco2)C(=O)CNS(=O)(=O)c2ccc(C)cc2)cc1	3	nt	nt	nt	0.1
COc1ccc(OC)c(-c2cc(C(=O)NC3CCCC3)c3ccccc3n2)c1	-14	nt	nt	nt	0.9

(more compounds)
SMILES	Mtb bLac sens	YopH inh	Mtb growth	Arbovirus anti	RecA intein inh	others
Nc1ncnc(Nc2cc(Cl)cc(Cl)c2)c1[N+](=O)[O-]	3	-20	2%	-4	1.2
Cc1ccc(C(=O)Cn2ncsc2=N)cc1	nt	-102	1%	5	1.8
CN(Cc1ccccc1)Cc1nc2c([nH]1)c(=O)[nH]c(=O)n2C	6	-49	-3%	4	nt
Clc1ccc(C2=NCCn3nc4ccccc4c32)cc1	8	nt	nt	nt	-4.7
CNCC(O)Cn1c(C(F)(F)F)nc2ccccc21 (configuration not stated)	-1	-4	-1%	1	-7.4
CCN(CC)CCCNC(=O)CNC(=S)N(CCCN1CCOCC1)Cc1cccs1	-4	nt	8%	10	-1.7
CC(=O)N(C1CC(C)C(C#N)(C#N)C1(C#N)C#N)N(C)C (configuration not stated)	2	nt	0%	9	81*
CCc1nc(Nc2ccccc2)c2oc3ccccc3c2n1	45	-44	-1%	3	0.6
C/C(=N\NC(=O)c1ccc(N/N=C(\C)c2ccncc2)cc1)c1ccncc1	36	nt	5%	-15	-2.8
N#C/C(=C(/O)COC(=O)CCc1ccc(S(=O)(=O)N2CCOCC2)cc1)c1nc2ccccc2[nH]1	nt	-21	1%	-51	-9.0
Cc1cccc(NC(=O)C2CC(=O)OC23CCCC3)c1 (configuration not stated)	-5	-23	1%	5	0.0
O=C(Nc1ccc(Cl)cc1)C1=Cc2cc(Cl)ccc2OC1	14	-12	10%	0	-0.6
O=C(Nc1ccc(Br)cc1C(=O)O)c1ccc2c(c1)C(=O)N(Cc1ccccc1)C2=O	-3	nt	nt	nt	0.2
CC(=O)NC1C(Oc2cccc(C)c2)OC2COC(c3ccco3)OC2C1O (configuration not stated)	6	-14	-1%	10	-1.1
Cc1ccc(CS(=O)Cc2ccc(C(=O)NCc3ccc(OC(C)C)cc3)o2)cc1 (configuration not stated)	2	nt	nt	nt	-3.0
Fc1ccccc1N1CCN(c2ncnc3nc[nH]c23)CC1	-3	nt	nt	nt	0.8
CCc1cccc(C)c1NC(=O)C(c1ccc(O)cc1)N1CCC1=O (configuration not stated)	-7	-24	-25%	11	-2.9
CC(=O)NC(=S)NNC(=O)C(c1ccccc1)c1ccccc1	3	nt	0%	5	9.7
COc1ccc(NC2CCCN(C(=O)CN3C(=O)c4ccccc4C3=O)C2)cc1OC (configuration not stated)	-5	nt	nt	nt	0.1
CCOC(CNC(=O)c1cccn2c(=O)c3cc(Cl)ccc3nc12)OCC	16	-33	10%	-17	-5.7
Cc1ccc(S(=O)(=O)N2CC=C(c3c(C)n(C)c4ccccc34)CC2)cc1	4	-16	3%	-3	-2.8
Cc1c(F)cccc1NS(=O)(=O)c1ccc2c(c1)n(C)c(=O)c(=O)n2C	-1	nt	nt	nt	0.0
O=c1cnnc(Nc2ccccc2)[nH]1	-1	nt	2%	-2	nt
CC(C)N(C(=O)Cn1c(SCC(=O)N2CCN(c3ccccc3)CC2)nc2ccccc21)C(C)C	-7	nt	5%	nt	-0.7
COc1ccc(-c2cc3c(nn2)-c2ccccc2C3=O)cc1	2	nt	-11%	-24	nt

Not all compounds are listed; the hit share may differ from the screen's.
